Screening results (PubChem)
AmpC nodet inh: Promiscuous and Specific Inhibitors of AmpC Beta-Lactamase (assay without detergent) | P00811 | AmpC nitrocefin hydrolysis, absorbance 480 nm, no detergent; potencies from a single point are estimates | Potency, µM (top dose mostly 28.7 µM), for inactives: at the top dose activity change, negative = inhibition | 71,000 compounds, 1.8% hits; active = falling curve, for most hits resting on a single point; inconclusive = weak or doubtful change; inactive = flat or rising curve; further: % of control where 0% means no effect; about half of the hits show no inhibition at the top dose; a quarter of the inactives give rising signals
Target sequence (P00811 whole entry, looked up): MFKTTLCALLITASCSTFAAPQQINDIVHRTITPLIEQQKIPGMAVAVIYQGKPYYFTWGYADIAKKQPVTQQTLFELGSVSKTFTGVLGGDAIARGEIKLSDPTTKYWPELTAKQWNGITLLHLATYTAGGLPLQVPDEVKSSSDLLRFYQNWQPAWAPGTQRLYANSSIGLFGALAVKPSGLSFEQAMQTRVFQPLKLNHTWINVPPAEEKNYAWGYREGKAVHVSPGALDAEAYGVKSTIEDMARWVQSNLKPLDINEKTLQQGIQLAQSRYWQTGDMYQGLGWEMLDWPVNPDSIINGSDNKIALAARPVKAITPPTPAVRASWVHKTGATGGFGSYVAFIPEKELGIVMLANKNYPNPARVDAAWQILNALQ
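AmpC in 20 mM phosphate buffer pH 7.0 was preincubated 15 min at room temperature with compounds. Nitrocefin (800 uM stock) was then added and hydrolysis followed at 480 nm every 20 s for 4 min.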
Active calls of the source: *; & = joins results of further samples; [ ] = dose if it differs, or a comment. Potency means the concentration at half of the fitted maximal effect. An excerpt; rates above refer to the full screens.

SMILES | AmpC nodet inh
Cn1cccc1Cc1nnc(SCC(=O)NCc2ccc(F)cc2)n1-c1ccc(F)cc1 | 116%
C[N+](C)(C)CC=O | -1%
Cc1cc(C)n2nc(S(=O)(=O)N(C)Cc3ccccc3)nc2n1 | 12%
CCC/C=C(\CCC)C(NC(=O)c1ccco1)c1ccc(C(=O)OC)cc1 (stereo unspecified) | 56%
COc1ccc2c(CN(C)c3ccccc3)cc(=O)oc2c1 | -1%
CCC[CH2][Sn]([Cl])([Cl])[Cl] | -14%
O=C(CC1CCCCC1)NCC1CCCO1 (stereo unspecified) | -2%
O=C(Nc1ccccc1C(F)(F)F)c1cc(-c2cccc(O)c2)on1 | -10%
COc1ccc(N2CCN(C(=O)c3ccc(CS(=O)(=O)c4ccc(OC)cc4)o3)CC2)cc1 | 124%
Cl/C(=C\n1cncn1)c1ccc(Cl)cc1Cl | 29%

Overlap with the part before: three compounds, then new ones.
SMILES | AmpC nodet inh
O=C(Nc1ccccc1C(F)(F)F)c1cc(-c2cccc(O)c2)on1 | -10%
COc1ccc(N2CCN(C(=O)c3ccc(CS(=O)(=O)c4ccc(OC)cc4)o3)CC2)cc1 | 124%
Cl/C(=C\n1cncn1)c1ccc(Cl)cc1Cl | 29%
CC(C)CCNC(=O)C(C)N(Cc1ccc(F)cc1)C(=O)c1ccc(CN2CCCCC2)o1 (stereo unspecified) | 56%
COc1ccc(CC(=O)OC(C)CN2CCCC2)cc1 (stereo unspecified) | 5%
c1cn(-c2ccnc(-c3ccc4c(c3)OCO4)n2)cn1 | 38%
Cc1nnc(NC(=O)CSc2nnc(Cc3cccn3C)n2-c2ccccc2)s1 | 101%
Cc1sc2ncnc(N[C@@H](CCC(=O)O)C(=O)O)c2c1C | -7%
Cc1ccc(NC(=O)CNc2cccc(C)c2C)c(C)c1 | 14%
CCCc1nc2c(=O)[nH]c3ccccc3c2o1 | 6%
CC(=O)NC1CC2CCCC(C1)N2 (stereo unspecified) | -7%
COC(=O)c1ccc2c(=O)n(CCN3CCOCC3)c(SCC(=O)NC3CCCCC3)nc2c1 | 46%
CCOC(=O)c1c(C)[nH]c(NC(=O)Nc2c(C)n(C)n(-c3ccccc3)c2=O)c1C | -11%
N=C(N)c1ccc(-c2ccc(-c3ccc(C(=N)N)cc3)o2)cc1 | -2%[5.75 µM]
Cc1ccc(N2CC(C(=O)OCC(=O)C(C)(C)C)CC2=O)cc1 (stereo unspecified) | 16%
Cc1cc(-c2nnc3sc(C4CCCCC4)nn23)n[nH]1 | 11%
O=S1(=O)CCC(N=Cc2cc(Br)ccc2O)C1 (stereo unspecified) | -3%
COCCSc1ccccc1C(=O)Nc1cc(C)on1 | -12%
O=C(CSc1nnc(CN2CCCCCC2=O)n1-c1ccccn1)NCC(F)(F)F | 1%
CCOC(=O)CCC(=O)OCC(=O)NC(C)C1CC2CCC1C2 (stereo unspecified) | 19%
COc1ccc(C(=O)CCN(C)C)c2ccccc12 | 6%[5.75 µM]
c1ccc2c(CNCCN3CCOCC3)cccc2c1 | 5%
Cc1ccccc1[N+](=O)[O-] | -4%
Cc1nnc(C)n1/N=C/c1cccc(Oc2ccccc2)c1 | 81%
O=C(NCc1ccco1)c1nc2ncccn2n1 | -4%
COc1ccc(/C(O)=C2/C(=O)C(=O)N(CCCN(C)C)C2c2ccc(Cl)cc2)cc1OC (stereo unspecified) | 21%
COc1ccc(C(=O)CN2C(=O)NC3(CCCc4ccccc43)C2=O)cc1OC (stereo unspecified) | 38%
Cc1ccccc1NS(=O)(=O)c1cc(C(=O)N2CCCC2)ccc1C | 13%
COc1cc(SC)ccc1C(=O)N1CCCCCC1 | 6%
COc1ccc(-c2nnc(SCc3nnc(-c4ccccc4)o3)n2-c2ccccc2)cc1 | 11%
N=c1ccn(Cc2ccc(Cl)cc2)cc1 | -5%
Brc1ccc(-c2nnc3sc(CNC4CCCC4)cn23)cc1 | 4µM*[single pt active]
O=C(CSc1nc2c(c(=O)n1-c1ccc(F)cc1)SCC2)N1CCCC1 | 7%
O=C(c1nsc(Cl)c1Cl)N1CCCCC1 | 2%
CC(C)Oc1ccc(C(=O)Nc2ccc(N3CCCC3)cc2)cc1 | -1%
O=C(COc1ccc(S(=O)(=O)NCCc2ccccc2)cc1)N1CCCC1 | 30%
Cc1cccc(C)c1Nc1nc2ccccc2o1 | -2%
CC(Oc1ccc(NC(=O)c2ccco2)cc1)C(=O)N1c2ccccc2CC1C (stereo unspecified) | 30%
Cc1noc(C)c1C(=O)OCC(=O)NCCc1ccc(Cl)cc1 | 22%
CCN(CC)CCNC(=O)c1cn(CC)c2ccc(S(=O)(=O)N(C)C)cc2c1=O | 3.2µM*[single pt active]
Cn1c(=O)cc(SCC(=O)NCc2cccnc2)c2ccccc21 | 4%
COc1cccc(CNC(=O)c2cc3ccccn3n2)c1 | -8%
Cc1ccc(C(=O)C2CCN(CC(=O)Nc3ccc4c(c3)OCCO4)CC2)cc1 | 48%

Reprinted at random: 4 compounds from above.
SMILES | AmpC nodet inh
COc1cccc(CNC(=O)c2cc3ccccn3n2)c1 | -8%
O=C(c1nsc(Cl)c1Cl)N1CCCCC1 | 2%
Cc1cccc(C)c1Nc1nc2ccccc2o1 | -2%
Cn1c(=O)cc(SCC(=O)NCc2cccnc2)c2ccccc21 | 4%

Next structures.
SMILES | AmpC nodet inh
CN1CCN(c2ncc3nc(-c4ccc(Cl)cc4)c(=O)n(Cc4ccc(F)cc4)c3n2)CC1 | 51%
N[C@@]12CCc3nonc3[C@]1(O)CC(c1ccccc1)=[N+]2[O-] | -14%
CNC(=O)C1CCCN1S(=O)(=O)c1ccc(OC)cc1 (stereo unspecified) | -4%
Clc1c(-c2nnc3n2CCC3)sc2ccccc12 | 10%
CC1(C)OC(=O)C2(Cc3ccccc3N3CCCCC32)C(=O)O1 (stereo unspecified) | 5%
O=C(CSc1nnc(C2CC2)n1Cc1ccccc1)N1CCN(S(=O)(=O)c2ccccc2)CC1 | 104%
CCCOc1ccccc1N1C(=O)CC(N2CCOCC2)C1=O (stereo unspecified) | 0%
CC(CCO)Nc1nc2c(c(=O)n(C)c(=O)n2C)n1Cc1cccc(Br)c1 (stereo unspecified) | 41%
CCOC(=O)c1ccc(Nc2ccc(-c3ccc(OC)c(OC)c3)nn2)cc1 | 31%
Cc1cc(Cl)ccc1OCCCC(=O)Nc1cccnc1 | 24%
Cc1cccc2sc(N)nc12 | -7%
Cc1nc(SCC(=O)Nc2cc(C)on2)c2c3c(sc2n1)CCCC3 | 62%
NC(=O)CSc1nc2sc3c(c2c2ncnn12)CCCC3 | 15%
Cc1ccc2[nH]c(=O)c(CN(Cc3nnnn3C3CCCC3)C3CCCCC3)cc2c1 | 31%
Cc1ccc(CCNC(=O)CS(=O)Cc2nc(-c3cccc(C)c3)oc2C)cc1 (stereo unspecified) | 116%
COc1ccc(Nc2ncc3c(n2)CC(c2ccccc2)CC3=O)cc1 (stereo unspecified) | 36%
CC1CCN(S(=O)(=O)c2ccc(NC(=O)CN3CCN(C)CC3)cc2)CC1 | 40%
COc1ccc(Cl)cc1NC(=O)CSc1nnc(COc2ccccc2)n1N | 34%
CCCc1nc(S(=O)(=O)Cc2ccc(Cl)cc2Cl)n[nH]1 | -9%
c1ccc(-c2csc(N3CCN(c4ccccn4)CC3)n2)cc1 | 5%
CC(C)CCn1nnnc1C(c1ccc(N(C)C)cc1)N1CCN(C(=O)c2ccco2)CC1 (stereo unspecified) | 135%
COC(=O)c1cc(COc2ccc3ccc(=O)oc3c2)c(C)o1 | 14%
CCOC(=O)N1CCN(C(=O)c2ccc3c(=O)n(-c4ccc(OC)cc4OC)c(=S)[nH]c3c2)CC1 | 30%
Cc1nnc2ccc(N3CCN(c4ccccn4)CC3)nn12 | 4µM*[single pt active]
Nc1c(N2CCCCC2)c(=O)[nH]c(=O)n1-c1ccccc1 | 0%
CCC(=O)Nc1cccc(NC(=O)c2ccc3c(c2)OCO3)c1 | -2%
CCN1CCN(C(=O)CN(C)S(=O)(=O)c2ccc(OC)cc2)CC1 | -4%
Cc1cccc(-n2c(CCN3C(=O)c4ccccc4C3=O)nc3ccccc3c2=O)n1 | 43%
O=C(NCCN=C1NS(=O)(=O)c2ccccc21)c1ccc(S(=O)(=O)N2CCOCC2)cc1 | 0%
CCOC(=O)/C=c1\s/c(=C\c2ccccc2OC)c(=O)n1CC(=O)N1CCOCC1 | 114%
CCCCOc1ccc(Cl)cc1CSc1nnc(CC)n1N | 34%
CCN1CCN(c2nc(SC)nc3sc4c(c23)CC(C)(C)OC4)CC1 | 83%
Cc1cc(C)n(-c2ccc(C(=O)NC3=NCCS3)cc2)n1 | 7%
Cc1nc2cnc(Nc3ccccc3)nc2n(C2CC2)c1=O | -6%
CCOC(=O)c1[nH]nc2c1C(=O)N(CC)C2=O | -12%
O=C(CSc1nnc(COc2ccccc2)o1)NCCc1ccccc1 | 17%
NCCC[C@H](N)CC(=O)N[C@H]1CNC(=O)[C@@H]([C@@H]2C[C@H](O)N=C(N)N2)NC(=O)/C(=C/NC(N)=O)NC(=O)[C@@H](CO)NC(=O)[C@@H](CO)NC1=O | -12%[12.8 µM]
O=C(NCCN1C(=O)C2C3C=CC(C3)C2C1=O)Nc1ccccn1 (stereo unspecified) | 4µM*[single pt active]
CCOc1ccccc1NC(=O)CSc1nc2cccnc2n1C | 16%
O=C(CN1CCC(n2nnc3cc(F)ccc32)CC1)Nc1ccc2c(c1)CCC2 | 64%

Given as comma-separated lines: 5 of the compounds above.
SMILES,AmpC nodet inh
Cc1sc2ncnc(N[C@@H](CCC(=O)O)C(=O)O)c2c1C,-7%
CC(=O)NC1CC2CCCC(C1)N2 (stereo unspecified),-7%
NCCC[C@H](N)CC(=O)N[C@H]1CNC(=O)[C@@H]([C@@H]2C[C@H](O)N=C(N)N2)NC(=O)/C(=C/NC(N)=O)NC(=O)[C@@H](CO)NC(=O)[C@@H](CO)NC1=O,-12%[12.8 µM]
Cl/C(=C\n1cncn1)c1ccc(Cl)cc1Cl,29%
Cc1ccccc1[N+](=O)[O-],-4%

Next compounds.
SMILES | AmpC nodet inh
CCN(CC)C(=O)c1ccc(NC(=O)c2cc(-n3cnnc3)ccc2Cl)cc1 | 16%
N#Cc1c(NC(=O)CSCC(=O)O)sc2c1CCCC2 | 4%
Cc1cc(C)n2nc(Nc3ccccc3)cc2n1 | 30%
CSc1cccc(NC(=O)C2CCCN(S(=O)(=O)c3ccc(F)cc3)C2)c1 (stereo unspecified) | -6%
COc1ccc(-c2cn3ccccc3n2)cc1OC | -3%
CC(O)/C=C/c1cccc[n+]1C (stereo unspecified) | -3%
C[C@@]1(C(=O)O)NCCc2cc(O)c(O)cc21 | -15%
O=P(COCCO)(c1ccccc1)c1ccccc1 | -10%
C=CCNC(=O)CN1CCC(O)(c2ccc(F)cc2)CC1 | 9%
O=C(CN1CCCCCC1)Nc1cccc2c1OCO2 | -7%
COc1ccc(C(=O)Nc2ccc(S(=O)(=O)N3CCCCC3)cc2)cc1OC | 44%
C[C@@H](C(=O)Nc1ccc2ccccc2c1)[C@H]1C[C@]1(C)[C@H](NS(=O)(=O)c1ccc2ccccc2c1)c1ccccc1 | -15%
Cc1ccc(C)n1C1CCS(=O)(=O)C1 (stereo unspecified) | 1%
Cc1cc(NS(=O)(=O)c2ccc(N)cc2)no1 | 0%
C[C@@](N)(Cc1ccc(O)cc1)C(=O)O | 1%&-7%
COc1cc(SC)ccc1C(=O)NCCCOC(C)C | 28%
CCCn1c(C)nc2c(N3CCCN(Cc4ccccc4)CC3)nc(C)nc21 | 107%
COCC(=O)N1CCC2(CCCN(C(=O)Nc3ccccc3)C2)CC1 | 4%
COc1cccc(CNC(=O)Cn2cc3c(n2)CCCCC3)c1 | 22%
COc1cc2nc(CN(C)CC(=O)Nc3ccc(N4CCOCC4)cc3)[nH]c(=O)c2cc1OC | 67%
O=S1(=O)N=C2CCCCCN2C(c2ccncc2)N1 (stereo unspecified) | -10%
COc1ccccc1NC(=O)c1cc(S(=O)(=O)N2CCC3(CC2)OCCO3)ccc1F | 66%
N#CC(C(=O)CCN1C(=O)C2CC=CCC2C1=O)c1nc2ccccc2[nH]1 (stereo unspecified) | -13%
CCOc1ccccc1NC(=O)Cn1cnc2c(cnn2-c2ccc(C)c(C)c2)c1=O | 29%
CC1=CC(=C2C(=O)c3ccccc3C2=O)C=C(C)O1 | 8%
O=C(Nc1ccn(Cc2ccc(Cl)cc2)n1)c1ccc2c(c1)OCO2 | -4%
CC1CCc2c(sc(N)c2C(N)=O)C1 (stereo unspecified) | -15%
COC(=O)CS(=O)(=O)c1ccc2c(c1)CC(=O)N2 | -11%
N#Cc1cccc(-c2nc(N3CCNCC3)c3ccccc3n2)c1 | 34%
Cc1cc(C)n2nc(SCc3cc(=O)n4ccccc4n3)nc2n1 | 7%
O=C(Nc1ccc2nn(-c3ccccc3)nc2c1)c1cccs1 | -17%
O=C(CSc1nnnn1-c1ccc(F)cc1)NC1CCCCC1 | 0%
CN[C@@H](C)[C@@H](O)c1ccccc1 | -5%
COc1ccc(C2C(C(=O)Nc3cccc(C)n3)c3ccccc3C(=O)N2C)cc1 (stereo unspecified) | 16%
COc1ccc(-c2nc(CSCC(=O)NCC3CCCO3)c(C)o2)cc1OC (stereo unspecified) | 34%
CC(C)OCCCNC(=O)c1ccc2c(c1)ncn2C1CCCC1 | 22%
Cc1nc2ncnn2c(C)c1CCC(=O)NC(C)CCc1ccco1 (stereo unspecified) | -2%
CCCn1c(SCC(=O)NCCc2ccccc2)nnc1-c1ccccn1 | 40%
O=C(NCCO)C1CCN(S(=O)(=O)c2ccc(F)cc2)CC1 | -8%
O=C(N1CCCCCC1)N1CCN(C(=O)N2CCOCC2)CC1 | 18%
O=C1OC(NC(=O)c2ccccc2)C(n2cc(CO)nn2)=C1Cl (stereo unspecified) | -8%
